# Screening results from PubChem BioAssay.
# Cruzain noTriton: inhibitors of Trypanosoma cruzi cruzain without detergent; P25779; purified cruzain, Z-FR-AMC fluorescence, no detergent; Potency, µM, for the others: max response, negative = inhibition, most hits filed as inhibitors; 2.3% of 200,000 active; active means well fitted curve in the direction sought with a large enough effect; inconclusive means small, poorly fitted or top-dose-only effect, or another doubt; inactive means no such curve, though single readings can be large; an effect the other way counts as inactive or inconclusive;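 further: plate controls were enzyme without inhibitor for no effect and buffer without enzyme for full effect; nearly all actives have a fitted effect of over 40% in size; top concentration of the series not given in the record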
# Target sequence (P25779 123-467 limits assumed): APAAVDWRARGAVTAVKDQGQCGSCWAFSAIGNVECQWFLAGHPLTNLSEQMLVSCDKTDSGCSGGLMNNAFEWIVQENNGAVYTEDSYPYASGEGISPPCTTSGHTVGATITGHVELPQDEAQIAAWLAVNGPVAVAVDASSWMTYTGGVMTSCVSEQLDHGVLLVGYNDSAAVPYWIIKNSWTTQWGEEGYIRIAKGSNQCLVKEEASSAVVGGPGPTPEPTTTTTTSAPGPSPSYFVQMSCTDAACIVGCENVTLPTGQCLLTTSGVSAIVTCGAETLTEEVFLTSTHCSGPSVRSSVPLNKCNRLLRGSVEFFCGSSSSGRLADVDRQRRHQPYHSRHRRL
#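 Detergent-free condition (0.00005% Triton X-100) in acetate buffer pH 5.5 with DTT. 1.5 nM enzyme and compound were pre-mixed 15 min, then 2 uM Z-FR-AMC substrate added; reaction progress from fluorescence change between first and third reads (60 s).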
# Cruzain Triton: cruzain (T. cruzi) inhibition with detergent. purified cruzain, Z-FR-AMC fluorescence, 0.01% Triton. Potency, µM, for inactives: max response, negative = inhibition, most hits filed as inhibitors. 0.43% of 200,000 active; active means well fitted curve in the direction sought with a large enough effect; inconclusive means small, poorly fitted or top-dose-only effect, or another doubt; inactive means no such curve, though single readings can be large; an effect the other way counts as inactive or inconclusive;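 further: plate controls were neutral wells for no effect and buffer without enzyme for full effect; nearly all actives have a fitted effect of over 40% in size; top concentration of the series not given in the record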
#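 Cruzain (1.5 nM) preincubated 15 min at RT with compound in 100 mM sodium acetate pH 5.5, 5 mM DTT, 0.01% Triton X-100. Reaction started with 2 uM Z-FR-AMC; AMC fluorescence (ex 360/em 450 nm) change over 60 s gave rate.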
# MARV entry inh: inhibitors of Marburg virus binding or cell entry; Marburg virus pseudotyped entry inhibition, cell reporter; control for the full effect not named in the record; about a third of the inactives were read at about 46 µM; Potency, µM (doses to about 37.8 µM), for inactives: at the top dose activity change, negative = inhibition, most hits filed as inhibitors; 1.8% of 300,000 active; AID 540276; active = well fitted inhibition curve with a large enough effect; inconclusive = small, poorly fitted or top-dose-only effect, or effect the other way; inactive = flat fitted curve, though single readings scatter; tested in HEK293 cells; about a fifth of its hits are not listed in these tables; further: on the % scale 0 is the no-effect control and ±100 the full control effect; luciferase read-out
# LASV entry inh: blocks Lassa virus binding to or entry into cells. Lassa virus pseudotype entry inhibition, cell reporter; control for the full effect not named in the record. Potency, µM (series often up to 37.9 µM), inactives show top-dose activity change, negative = inhibition, hits mostly inhibitors. 1.2% of 300,000 active. AID 540256; active means well fitted inhibition curve with a large enough effect; inconclusive means small, poorly fitted or top-dose-only effect, or effect the other way; inactive means flat fitted curve, though single readings scatter; tested in HEK293 cells; further: on the % scale 0 is the no-effect control and ±100 the full control effect; nearly all actives have a fitted effect of over 50% in size; luciferase read-out
# SARS PLpro yeast: blocks SARS-CoV papain-like protease in a yeast assay. S. cerevisiae expressing SARS-CoV PLpro, growth rescue; control for the full effect not named in the record. Potency, µM (doses to about 32.9 µM), for the others: top-dose activity, positive = growth rescue. 0.19% of 330,000 active. AID 485353; further: 0% is about no effect; nearly all actives have a fitted effect of over 55% in size; growth read by luminescence after 48 h
# RE007 growth inh: less growth of the S. pombe RE007 Vpr strain; S. pombe RE007 Vpr strain, BacTiter-Glo ATP luminescence, 24 h; control for the full effect not named in the record; Potency, µM (titrated, usually from 92.2 µM), inactives show at the highest dose activity change, negative = less growth; 0.21% of 360,000 active; AID 651644; active = well fitted falling curve with a large enough effect; inconclusive = small, poorly fitted or top-dose-only effect; inactive = no such curve, though single readings can be large or run the other way;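 further: on the % scale 0 is the no-effect control and ±100 the full control effect; nearly all actives have a fitted effect of over 50% in size; the assay follows cell death caused by Vpr and the record does not say whether a fall means rescue or toxicity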
#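 Fission yeast strain RE007, carrying one chromosomally integrated HIV-1 vpr copy, was seeded at OD 0.01 in PMG+AL medium with 23 nL pinned compound. After 24 h at 30 °C and 99% humidity, viability was read by BacTiter-Glo luminescence.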
# 2A StopGo: lowers the luciferase signal of an FMDV 2A StopGo reporter; Potency, µM (top dose mostly 57.9 µM), for inactives: at the highest dose signal change, negative = less light; AID 1159524; human cells with a luciferase reporter of 2A StopGo recoding; control for the full effect not named in the record; 1.2% of 410,000 active; active = well fitted falling curve with a large enough effect; inconclusive = small, poorly fitted or top-dose-only effect; inactive = no such curve, though single readings can be large or run the other way; tested in HEK293T cells; further: on the % scale 0 is the no-effect control and ±100 the full control effect; nearly all actives have a fitted effect of over 45% in size; luciferase light after 4 h
# NS1 function inh: inhibitors of influenza NS1 protein function; S. cerevisiae slowed by influenza A NS1, growth recovery by OD600; 0.4% of 270,000 active; AID 2326; Potency, µM (series often up to 46.1 µM), without a hit: at the highest dose activity, positive = more growth; further: actives are rising curves; nearly all actives have a fitted effect of over 50% in size
#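 Recovery from NS1-induced slow growth read by OD600 in budding yeast switched to galactose assay medium (pH 6.0, -URA) at 1:100 dilution. Compound 23 nl per well; the matching strain lacking NS1 serves as control.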
# * marks the source's active call; other numbers are inactive results; ? = inconclusive; nt = no result given; [ ] = dose if it differs, or a comment. Unless noted, the call rests on the fitted dose curve; in most records, active means well fitted rising curve with a large enough effect; inconclusive means small, poorly fitted or top-dose-only effect; inactive means no such curve, though single readings can be large or run the other way. Potency means the concentration at half of the fitted maximal effect.
SMILES,Cruzain noTriton,Cruzain Triton,MARV entry inh,LASV entry inh,SARS PLpro yeast,RE007 growth inh,2A StopGo,NS1 function inh
CC(C)CC(O)C1CCN(C(=O)CCc2nnc(-c3ccccc3)o2)CC1 (stereo not drawn),nt,nt,nt,nt,0%,14%,17%,10%
N#Cc1ccccc1COC(=O)c1cccc(S(=O)(=O)N2CCCC2)c1,nt,nt,?,0%[46.1 µM],0%,-6%,16%,nt
O=C(Nc1nnc(-c2ccco2)s1)C1CCCCC1,?,-5.0%,-6%,?,1%,1%,25%,-2%
C=CCOc1ccc(/C=C2\SC(=S)N(NS(=O)(=O)c3ccccc3)C2=O)cc1,nt,nt,22%[46.1 µM],13%,2%,-19%,-12%,-39%
O=C(c1ccc2c(c1)OCO2)C1CCCN(C(=O)c2cnn(Cc3ccccc3)c2)C1 (stereo not drawn),nt,nt,nt,nt,-2%,3%,0%,-4%
Cn1cccc1Cc1nnc(SCC(=O)NCc2ccc(F)cc2)n1-c1ccc(F)cc1,30%,0.0%,0%,nt,5%,-5%,-5%,-1%
C[N+](C)(C)CC=O,5%,2.1%,?,-7%,nt,-15%[18.4 µM],-15%,-6%
Cc1cc(NC(=O)CCC(=O)N(CC(=O)NC2CCCC2)c2ccc(C)c(F)c2)no1,nt,nt,7%[46.1 µM],21%[46.1 µM],-5%,4%,3%,8%
CCN(CC)CCCNC(=O)CC1Oc2ccc(C)cc2NC1=O (stereo not drawn),-4%,2.3%,nt,nt,-11%,-5%,0%,1%
CC(C)(C)OC(=O)N[C@@H](Cc1ccccc1)[C@H](O)c1ccco1,nt,nt,nt,nt,0%,1%,-14%,7%
Cc1ccc(C(=O)NC(=S)NCc2ccccc2)cc1,nt,nt,nt,nt,-6%,?,44%[activator],-8%
CCOc1ccccc1C1C(C(=O)Nc2ccccc2OC)=C(C)Nc2nc(CCCO)nn21 (stereo not drawn),8%,-5.2%,0%,nt,-9%,2%,-21%,-1%
CC(C(=O)NCc1ccc2c(c1)OCO2)c1ccc([N+](=O)[O-])cc1 (stereo not drawn),nt,nt,-11%[46.1 µM],11%,1%,-1%,-24%,-8%
Cc1c(C)c2ccc(OCC(=O)Nc3cccnc3)c(C)c2oc1=O,nt,nt,nt,nt,-1%,-7%,5%,5%
O=C(COc1ccc(S(=O)(=O)NC2CCCC2)cc1)NCC1CCCO1 (stereo not drawn),nt,nt,-16%[46.1 µM],-4%[46.1 µM],0%,2%,40%[activator],-2%
CCOc1ncccc1C(=O)OCc1ccc(C#N)cc1,3%,-3.9%,18%,14%,-25%,4%,-9%,-6%
CCCc1cc(=O)oc2cc(OCc3cccc(OC)c3)c(Cl)cc12,-12%,-4.3%,?,9%,-5%,1%,-6%,0%
Cc1cc(S(=O)(=O)Nc2ccc(C(=O)NCCCN3CCOCC3)cc2)ccc1F,nt,nt,-2%,4%,-4%,9%,-9%,nt
CCOC(=O)N=S(N)(=O)c1ccc(Cl)cc1 (stereo not drawn),-2%,6.2%,14%,11%,-1%,-17%,5%,2%
NC(=O)COC(=O)c1ccc(S(=O)(=O)N2CCCCCC2)cc1,4%,-0.7%,-2%,9%,9%,23%,-1%,7%
O=C(CNC(=O)C1(c2ccccc2)CC1)Nc1ccc(F)c(F)c1,nt,nt,0%,-8%,11%,-2%,11%,nt
COc1ccc(CNC(=O)Nc2cccc(C)c2)cc1,9%,-3.5%,-10%,-14%,9%,4%,63%[activator],-12%
CC1(C)Cc2nc3oc4c(=O)n(CC(=O)Nc5ccc(Cl)cc5)cnc4c3cc2CO1,nt,nt,?,-11%,-2%,13%,3%,-1%
CN(C)c1nc(-c2ccccc2)ns1,nt,nt,?,24%,-4%,-15%,46%[activator],0%
COc1cccc(CC2(CO)CCCN(Cc3ccc(C)s3)C2)c1 (stereo not drawn),nt,nt,?,0%,-1%,-4%,-19%,-1%
COc1ccc(NC(=S)NC(=O)c2ccc3c(c2)OCCO3)cc1,nt,nt,?,-8%,0%,-6%,-7%,nt
COc1ccc(OC)c(/C=N/NC2=NS(=O)(=O)c3ccccc32)c1,nt,nt,0%,nt,-1%,-7%,-9%,6%
COc1cc(OC)cc(C(=O)NNC(=O)c2ccc(S(=O)(=O)N(C)c3ccccc3OC)cc2)c1,nt,nt,nt,nt,0%,-1%,-30%,0%
O=C(c1ccco1)N1C(=O)c2cccc3cccc1c23,-5%,0.6%,-4%,0%,5%,-22%,-9%,-24%
COc1cc2ccccc2cc1C(=O)N1CCN(c2nc3c(C)cc(C)cc3s2)CC1,-26%,-4.6%,nt,5%[46.1 µM],nt,nt,-8%,nt
CCOc1ccc(OCC)c(NC(=O)CCCN2C(=S)NC(C)(C)CC2C)c1 (stereo not drawn),4%,1.0%,-1%,-7%,7%,7%,-15%,-9%
CC1(OC(=O)CCc2ccccc2)C(=O)C=C2C=C(c3ccc(C#N)cc3)N(Cc3ccco3)C=C2C1=O (stereo not drawn),nt,nt,nt,nt,1%,-6%,13%,0%
O=C1N/C(=C/c2cccn2-c2ccc(F)cc2)C(=O)N1Cc1ccccc1,?,6.2%,?,-39%[14.3 µM],4%,4%,-1%,10%
Cc1ccc(NC(=O)CSc2nnc(-c3cccs3)n2Cc2ccco2)cc1,3%,-7.9%,-37%,-29%,2%,8%,-9%,?
CCC1CN(C(=O)N2CCC(C(=O)N(C)Cc3ccccc3)CC2)c2ccccc2O1 (stereo not drawn),-7%,-8.0%,nt,?,nt,nt,-17%,nt
CN(CC(=O)Nc1ccccc1C(F)(F)F)C(=O)CN1C(=O)C2CCCCC2C1=O (stereo not drawn),nt,nt,-19%,9%,1%,-3%,-6%,nt
Cc1ccc(C(=O)Oc2cc(-c3ccc4c(c3)OCO4)cc(=O)c3c(C)oc(C)c23)cc1,?,-5.8%,?,-2%[46.1 µM],nt,nt,-6%,nt
CCCOc1ccc(NC(=O)C2OC3OC(C)(C)OC3C3OC(C)(C)OC23)cc1 (stereo not drawn),21%,-1.8%,9%,2%,9%,nt,nt,3%
Cc1nc(-c2ccc(Cl)cc2)sc1C1(C)CC(c2cccc(Cl)c2)=NO1 (stereo not drawn),nt,nt,nt,nt,-8%,10%,34%[activator],15%
N#Cc1cc2c(nc1SCc1ccccc1)CCCC2=O,-16%,-7.3%,4%,8%,-10%,0%,nt,-18%
Cc1cccc(C2c3[nH]c4ccccc4c3CCN2C(=O)c2cn(C)c3ccccc3c2=O)n1 (stereo not drawn),nt,nt,-20%,-9%,-1%,3%,-13%,2%
COc1ccccc1CNC(=O)C(c1ccccc1)c1ccccc1,nt,nt,?,-8%[46.1 µM],15%,-8%,-17%,8%
CN(C(=O)C1CCCO1)c1nnc(-c2ccncc2)s1 (stereo not drawn),-14%,3.3%,-1%,19%,3%,-3%,0%,-9%
O=C(CN1C(=O)c2ccccc2C1=O)NCCOc1ccccc1,nt,nt,nt,nt,0%,9%,-7%,-1%
Cc1c(Nc2cc(Cl)c3nonc3c2[N+](=O)[O-])c(=O)n(-c2ccccc2)n1C,nt,nt,?,?,1%,0%,14µM*,nt
COc1ccc(OC)c(NC(=O)C(=O)N/N=C(\C)CC(=O)Nc2ccc(Cl)cn2)c1,nt,nt,-11%[46.1 µM],-5%[46.1 µM],-1%,-6%,-10%,9%
CCc1cc(=O)oc2cc(OCC(=O)N(CC)CC)c(Cl)cc12,3%,-0.3%,1%,nt,17%,8%,-22%,-1%
CC(C)CC1(C2CCCC2)NC(=O)NC1=O (stereo not drawn),nt,nt,16%[46.1 µM],-1%[46.1 µM],nt,6%,-12%,nt
C#CCNC(=O)C1=C[C@@H](c2ccccc2)C[C@@H](OCc2ccc(CO)cc2)O1,nt,nt,nt,nt,-1%,0%,0%,2%
CCc1ccccc1NC(=O)c1cccn(Cc2ccccc2F)c1=O,-6%,-0.2%,nt,6%[46.1 µM],nt,nt,-21%,nt

# Other structures:
SMILES,Cruzain noTriton,Cruzain Triton,MARV entry inh,LASV entry inh,SARS PLpro yeast,RE007 growth inh,2A StopGo,NS1 function inh
COc1ccc(-c2csc(NC(=S)NC(=O)c3cc4ccccc4o3)n2)cc1Br,nt,nt,nt,nt,-1%,-8%,18%,-2%
Cc1c(C)n2c(SCC(=O)NC3CCCC3)nnc2[nH]c1=O,nt,nt,22%[46.1 µM],0%,1%,-1%,-6%,nt
Cc1cccc(C)c1-n1nnnc1C(C)(C)N1CCN(N=O)CC1,nt,nt,5%[46.1 µM],5%[46.1 µM],-1%,11%,-6%,0%
CC(c1ccccc1)N1C(=O)c2ccc(C(=O)NCc3ccco3)cc2C1=O (stereo not drawn),-9%,-3.8%,4%,-1%,-53%,4%,-14%,-63%
O=C(COc1ccc(S(=O)(=O)N2CCCC2)cc1)N1CCCCC1,nt,nt,4%[46.1 µM],-5%[46.1 µM],1%,-6%,18%,7%
O=C(NCCCCc1ccccc1)c1nn(-c2ccccc2F)nc1CO,-7%,-5.8%,-2%[46.1 µM],-3%[46.1 µM],nt,nt,0%,nt
O=S(=O)(c1cccs1)N1CCC(CO)(Cc2ccc(Cl)cc2)CC1,nt,nt,7.9µM*,?,-2%,-5%,?,-3%
COc1cccc(NC(=O)c2cc3c(-c4ccc(Cl)cc4)nn(C)c3s2)c1,?,1.0%,-22%[46.1 µM],?,nt,nt,?,nt
CC(C)NC(=O)Cn1c(SCC(=O)c2ccc(F)cc2)nc2ccccc21,-14%,-0.3%,0%,26%,10%,-16%,-4%,4%
Cc1cc(C)c(N(C(=O)Cn2nnc3ccccc32)C(C(=O)NC(C)(C)C)c2ccsc2)c(C)c1 (stereo not drawn),?,-3.0%,-16%,-10%,11%,1%,nt,8%
CC(OC(=O)CN1C(=O)c2ccccc2C1=O)C(=O)NC1CCCCC1 (stereo not drawn),nt,nt,-8%[46.1 µM],29%[46.1 µM],15%,11%,21%,0%
O=C(O)c1cc(S(=O)(=O)N2CCCCC2)sc1Cl,18%,2.2%,-7%,1%,-6%,7%,1%,-1%
O=C1/C(=C/c2ccncc2)SC(=S)N1Nc1ccccc1,nt,nt,?,-11%,-4%,26%,20µM*,3%
COc1cc2c(cc1OC)C(C)N(CC(=O)Nc1ccc(S(=O)(=O)N3CCCC3)cc1)CC2 (stereo not drawn),nt,nt,nt,nt,-7%,12%,?,-20%
